Beta apoptosis: beta cell apoptosis inhibition. INS-1E cytokine-induced death, ATP luminescence, 48 h; percent of positive-control rescue, neutral wells zero. protection from apoptosis, % (test concentration not listed). 300,000 tested, 0.8% active. AID 435005;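 active = all replicates at 75% or more, or half of them and the mean; inconclusive = half reach 75% but not the mean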;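 note: 0% = cytokine-treated negative control wells and 100% = positive control rescue; higher means more ATP so stronger rescue from cytokine killing; wells of about 40 µL received 100 nL stock; the first replicate is given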
Ecoli rRNA inh: selective bacterial rRNA inhibition in E. coli; 350,000 tested, 1.6% active; E. coli WT GFP vs humanized-ribosome RFP mutants, fluorescence, 24 h; active compounds read low; DMSO median 0, no signal -100; GFP signal change (wild-type ribosome), % (test concentration not listed);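 active = significant combined selectivity score with lowered wild-type GFP, culture density cut under 30%, mutant RFP and density less affected; inactive = any of these conditions unmet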; note: one replicate is shown; some compounds called inactive have numbers as strong as hits
Calb FLC: affects C. albicans growth with fluconazole; 300,000 tested, 0.57% active; growth inhibition, % (concentration not given with the values); AID 1979; C. albicans CaCi-2 (fluconazole-resistant clinical isolate) + fluconazole, Alamar Blue growth, 48 h;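 active = most replicates above 75%; inconclusive = exactly half above 75%; inactive = most below 75%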;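 note: all wells also contain fluconazole at 8 µg/ml as a sub-toxic cotreatment; 0% = median of DMSO wells and 100% = median of geldanamycin control wells; wells of about 8 µL received 7.5 nL stock; the first replicate is given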
MLL AF4-AF9 inh: MLL-AF4/AF9 protein interaction inhibition. inhibition, % at 10 µM. AlphaScreen, biotin-AF4 peptide binding to FLAG-AF9. 350,000 tested, 0.47% active. P42568;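 active = every replicate reaching a set inhibition limit, whatever the replicate mean, cut at about 25% in these data; inconclusive = mean inhibition reaches that limit but some replicates miss it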;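 note: 0% = plate neutral control median and 100% = total signal loss; the record names both 10 and 1 µM as test concentration; the first replicate is given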
Target sequence (P42568 whole entry, looked up): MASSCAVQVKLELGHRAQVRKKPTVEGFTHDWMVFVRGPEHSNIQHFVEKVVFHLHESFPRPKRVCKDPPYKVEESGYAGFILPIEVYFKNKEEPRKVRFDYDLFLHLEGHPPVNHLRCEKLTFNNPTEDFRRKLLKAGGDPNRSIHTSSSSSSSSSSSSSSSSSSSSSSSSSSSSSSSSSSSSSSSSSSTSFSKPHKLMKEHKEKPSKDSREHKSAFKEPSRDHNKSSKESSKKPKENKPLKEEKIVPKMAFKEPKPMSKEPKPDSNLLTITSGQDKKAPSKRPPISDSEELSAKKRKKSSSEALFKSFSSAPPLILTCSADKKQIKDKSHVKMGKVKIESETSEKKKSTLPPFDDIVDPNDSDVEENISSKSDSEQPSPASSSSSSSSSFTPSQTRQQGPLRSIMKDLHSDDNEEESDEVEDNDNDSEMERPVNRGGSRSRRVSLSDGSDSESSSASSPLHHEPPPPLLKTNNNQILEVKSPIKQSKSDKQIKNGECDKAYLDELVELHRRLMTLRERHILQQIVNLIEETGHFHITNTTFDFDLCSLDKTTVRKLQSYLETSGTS
ALR H2O2 inh: blocks human ALR sulfhydryl oxidase activity; purified ALR, DTT oxidation, H2O2 HRP-luminol luminescence; inhibition, % (test concentration not listed); 290,000 tested, 3.8% active; AID 485317;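 active = mean and each replicate at 75% or more; inconclusive = only one of the two met; inactive = neither met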;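 note: stock transfer was 7.5 nL into about 7.5 µL; 0% = neutral wells and 100% = wells with inactivated enzyme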
Target sequence (P55789 whole entry, looked up): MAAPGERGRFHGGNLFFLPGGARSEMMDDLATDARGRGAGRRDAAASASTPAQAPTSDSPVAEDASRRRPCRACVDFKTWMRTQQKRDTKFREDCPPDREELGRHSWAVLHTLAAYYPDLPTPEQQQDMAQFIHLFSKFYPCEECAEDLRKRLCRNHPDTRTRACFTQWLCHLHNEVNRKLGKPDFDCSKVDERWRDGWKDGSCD
FGF22 binding: binders of recombinant human FGF22 by thermal shift; 340,000 tested, 1.5% active; SYPRO orange fluorescence; percent of sucrose octasulfate shift, DMSO zero; calls only at 9.99 µM; Q9HCT0;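 active = melting point raised past a set limit in the mean and every replicate; inconclusive = no clear call; three in four hits are not shown here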
Target sequence (Q9HCT0 whole entry, looked up): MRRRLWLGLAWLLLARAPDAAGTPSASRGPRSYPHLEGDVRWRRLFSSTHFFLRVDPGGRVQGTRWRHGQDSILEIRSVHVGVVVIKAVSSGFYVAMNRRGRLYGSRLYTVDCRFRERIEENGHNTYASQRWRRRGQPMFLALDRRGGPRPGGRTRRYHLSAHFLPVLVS
T cruzi inh: blocks replication of Trypanosoma cruzi; T. cruzi beta-gal in NIH3T3, luminescence, 90 h; inhibition, % (concentration not given with the values); 300,000 tested, 1.4% active; AID 1885;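 active = mean inhibition across valid replicates above about 55%, limit read from the data; inconclusive = mean below that limit but half or more replicates reach it; inactive = mean below it, under half of replicates reach it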;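 note: signal also drops with host cell toxicity which is not excluded here; 0% = plate median of DMSO wells and 100% = zero luminescence signal; higher percent means less beta-gal luminescence so fewer parasites; stock transfer was 50 nL into about 50 µL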
RanGTP-Impb inh: disruptors of Ran-importin-beta complex formation – biochemical, FRET, CFP-Ran, YFP-importin-beta, homogeneous, primary screen; inhibition, % (test concentration not listed); AID 2216; cell-free CFP-Ran/YFP-importin-beta FRET ratio; 300,000 tested, 1.1% active;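 active = most replicates above 15%; inconclusive = exactly half above 15%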;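 note: 0% = DMSO wells and 100% = Ran loaded with GDP instead of GTP; wells of about 40 µL received 100 nL stock; the first replicate is given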
Ecoli rRNA inh OD600: further read-out of Ecoli rRNA inh, marked with its call; OD600 change, %; measured here: OD600 growth;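 optical density of the mix in the first replicate; 0 = DMSO median and -100 = no signal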
Ecoli rRNA inh RFP: second read-out of Ecoli rRNA inh, no call of its own (marks repeat the call); RFP signal change, %; measured here: RFP humanized mutant strains;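 first replicate; 0 = DMSO median and -100 = no signal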
* marks the source's active call; other numbers are inactive results; i = inactive; ? = inconclusive; · = not tested or not shown.

SMILES	Beta apoptosis	Ecoli rRNA inh	Ecoli rRNA inh OD600	Ecoli rRNA inh RFP	Calb FLC	MLL AF4-AF9 inh	ALR H2O2 inh	FGF22 binding	T cruzi inh	RanGTP-Impb inh
COc1cc(C(=O)Nc2nc(-c3ccc(C)cc3)cs2)ccc1OCC(=O)N1CCOCC1	7.3	·	·	·	-2.6	·	2.7	·	54.7*	?
CNC(=O)CSc1nnc(-c2ccco2)n1-c1ccccc1OC	4.6	·	·	·	23.8	·	-2.2	·	10.6	?
Cc1ccc2c(ccc[n+]2CC(=O)c2ccccc2)c1	-1.8	·	·	·	70.5	·	23.1	·	8.7	-4.9
CCCNc1nc(OC(C(F)(F)F)C(F)(F)F)nc(OC(C(F)(F)F)C(F)(F)F)n1	-4.5	·	·	·	1.7	·	7.2	·	10.5	?
COC(=O)[C@@]12CCCCN1[C@H](c1ccc(-c3ccc(F)cc3)c(OC)c1)[C@@H]1C(=O)N(C)C(=O)[C@@H]12	2.4	4.2	-5.4	-12.0	·	6.0	-13.9	i	·	·
Cc1ccc(C(=O)NN2C(=O)C3C(C2=O)C2C=CC3C23CC3)cc1 (stereo not drawn)	-2.2	9.1	5.3	2.4	-1.0	-2.0	-7.0	·	-6.9	-2.4
Cc1csc(N(C)C(=O)CSc2nnc(COc3ccccc3C)o2)n1	-0.9	11.5	7.0	4.4	-6.4	-14.0	-0.1	i	2.5	3.5
CCN1CCN(C(=O)NCc2ccccc2)CC1	-2.6	9.6	0.2	-4.1	-9.4	1.5	-4.0	i	-4.1	1.5
O=C1NC(=S)S/C1=C/c1ccc(Oc2cnccn2)cc1	1.3	8.4	-4.9	-0.6	1.4	-1.4	-13.1	i	8.1	·
Nc1cc(N)nc(SCC(=O)c2ccc3c(c2)NC(=O)CO3)n1	-3.2	11.3	0.3	-8.0	-0.7	-4.2	-12.3	i	-23.9	3.1
COc1ccc(C(=O)N/N=C(\C)CC(=O)NC2CCCCC2)c(OC)c1	3.2	-5.3	-10.8	-0.8	-1.7	-1.7	2.6	i	-2.7	-2.9
CCOC(=O)C1CCN(C(=O)COc2cccc(C)c2)CC1	-12.0	13.6	4.1	5.2	-11.9	-7.1	-3.1	i	-18.4	9.1

Entries shown so far containing an aryl thioether with sulfur outside any ring (3):
SMILES	Beta apoptosis	Ecoli rRNA inh	Ecoli rRNA inh OD600	Ecoli rRNA inh RFP	Calb FLC	MLL AF4-AF9 inh	ALR H2O2 inh	FGF22 binding	T cruzi inh	RanGTP-Impb inh
CNC(=O)CSc1nnc(-c2ccco2)n1-c1ccccc1OC	4.6	·	·	·	23.8	·	-2.2	·	10.6	?
Cc1csc(N(C)C(=O)CSc2nnc(COc3ccccc3C)o2)n1	-0.9	11.5	7.0	4.4	-6.4	-14.0	-0.1	i	2.5	3.5
Nc1cc(N)nc(SCC(=O)c2ccc3c(c2)NC(=O)CO3)n1	-3.2	11.3	0.3	-8.0	-0.7	-4.2	-12.3	i	-23.9	3.1

Record cards, from the list above. Values in the order: Beta apoptosis | Ecoli rRNA inh | Ecoli rRNA inh OD600 | Ecoli rRNA inh RFP | Calb FLC | MLL AF4-AF9 inh | ALR H2O2 inh | FGF22 binding | T cruzi inh | RanGTP-Impb inh
Entry for COC(=O)[C@@]12CCCCN1[C@H](c1ccc(-c3ccc(F)cc3)c(OC)c1)[C@@H]1C(=O)N(C)C(=O)[C@@H]12 = 2.4 | 4.2 | -5.4 | -12.0 | · | 6.0 | -13.9 | i | · | ·
Entry for Nc1cc(N)nc(SCC(=O)c2ccc3c(c2)NC(=O)CO3)n1 = -3.2 | 11.3 | 0.3 | -8.0 | -0.7 | -4.2 | -12.3 | i | -23.9 | 3.1

(continued)
SMILES	Beta apoptosis	Ecoli rRNA inh	Ecoli rRNA inh OD600	Ecoli rRNA inh RFP	Calb FLC	MLL AF4-AF9 inh	ALR H2O2 inh	FGF22 binding	T cruzi inh	RanGTP-Impb inh
CN(CCCNC(=O)c1ccc(N2CCCC2=O)cc1)c1ccccc1	0.5	·	·	·	-4.2	·	25.3	·	-15.0	-0.6
CC(=O)c1cccc(CN2CCN(C3CCCCC3)C(CCO)C2)c1 (stereo not drawn)	-1.8	10.6	3.0	1.5	-9.8	-1.0	·	i	-3.3	?
COCCNC(=O)c1cc2c(=O)n3cccc(C)c3nc2n(Cc2ccncc2)c1=N	0.4	·	·	·	20.7	·	-3.0	·	-14.0	192.3*
O=C(Nc1cccc(C(=O)O)c1)Nc1cccc2ccccc12	-5.3	4.4	6.4	0.6	1.1	-0.9	-7.4	i	-16.3	5.4
CC(=O)c1cc(C#N)c(Oc2cc(C)cc(C)c2)nc1C	-0.9	·	·	·	3.0	·	-3.2	·	11.0	-2.4
CCN1C(=O)c2ccc(-c3nc4ccccc4c(=O)o3)cc2C1=O	-4.4	2.1	2.2	-8.3	4.0	4.0	·	i	-12.5	0.0
O=C(Nc1ccc(S(=O)(=O)O)cc1)c1ccc2c(c1)S(=O)(=O)c1ccccc1C2=O	-0.6	0.1	6.2	-0.7	6.3	9.3	-17.0	i	-27.4	2.0
CSc1sc(C(=O)N(C)C)c2c1S(=O)(=O)N(C)c1ccccc1-2	-4.4	13.1	-2.6	2.3	-18.3	3.0	-7.4	i	-3.1	-1.5
CCOC(=O)N1CCC(NC(=O)c2cc(C(=O)Nc3ccc(F)cc3F)ccc2CO)CC1	-1.4	-6.0	5.2	-2.2	-9.8	-5.0	-24.0	i	3.0	-7.8
Cc1ccc(S(=O)(=O)N2CCCCC2C(=O)N2CCN(c3ccccc3F)CC2)cc1 (stereo not drawn)	·	-20.0*	-14.1*	7.3*	-6.0	-29.4	-2.5	i	29.3	6.2
O=C(N/N=C/c1ccc(-n2ccnc2)cc1)c1cccs1	1.0	1.0	3.3	-0.4	0.9	1.7	-2.9	i	-1.8	-1.7
O=C(Cc1ccc(Cl)cc1)Nc1ccccc1C(=O)Nc1ccc(C(=O)O)cc1	-13.7	-7.7	-3.6	-4.9	2.2	-1.5	-2.1	i	-16.2	3.4
O=C(CC1C(=O)NCCN1Cc1ccccc1)NCCN1CCCCC1=O (stereo not drawn)	·	20.9	10.3	0.4	15.1	1.4	-17.0	i	-8.4	4.9
Cc1cc(=O)n2nc(N3CCCC3C(=O)Nc3ccccc3C)sc2n1 (stereo not drawn)	-4.3	10.0	5.7	2.8	8.0	-2.4	0.2	i	2.2	1.1
COc1ccc(/C=C/C(=O)c2ccccc2)c(OC)c1	-0.5	-1.4	0.6	-2.2	0.9	7.3	4.1	i	-2.6	10.7
O=C(NCCN1CCc2ccccc2C1)C1CC(=O)N(C2CCCC2)C1 (stereo not drawn)	·	·	·	·	-7.0	·	-3.6	·	-10.9	-3.0
COc1ccc(S(=O)(=O)NCC2CCCN(Cc3ccccc3Cl)C2)cc1 (stereo not drawn)	1.2	0.1	0.9	0.6	0.1	4.0	-4.0	i	25.9	5.5
ClCc1csc(N/N=C/c2cccs2)n1	3.0	·	·	·	-2.4	·	-55.0	·	-6.3	0.6
COc1ccc2c(C)c(CCC(=O)NCCCN3CCCC3=O)c(=O)oc2c1C	-4.0	·	·	·	-2.2	-2.4	-6.1	i	-5.8	4.2
Cc1ccc(S(=O)(=O)/N=S(/C)c2ccccc2)cc1 (stereo not drawn)	-4.2	·	·	·	-0.3	·	-11.7	·	-2.7	2.4
Cc1nnc(NC(=O)C2CCCN(S(=O)(=O)Cc3ccccc3)C2)s1 (stereo not drawn)	-1.6	·	·	·	4.2	·	0.4	·	1.1	-1.7
O=C(Nc1nc(-c2ccc(Cl)cc2Cl)cs1)C1CCCO1 (stereo not drawn)	-4.7	-23.2	-56.9	-2.6	-1.7	-17.3	-10.5	i	2.0	7.9
Cc1nc(C(C)NC(=O)CCc2nnc(Cc3c[nH]c4ccccc34)o2)cs1 (stereo not drawn)	0.2	27.2	15.6	0.5	-20.7	-1.1	-25.8	i	-17.5	3.0
CC(C)(C)NC(=O)c1cccc2c1OC(C)(C)C2	-8.8	·	·	·	-0.1	·	0.0	·	1.3	-1.7
CC(NC(=O)c1ccccc1F)c1ccccc1 (stereo not drawn)	-6.7	7.0	-0.7	-2.9	10.3	-7.0	-5.0	i	-4.2	0.3
CCCc1cc(N2CCOCC2)n2nc(C)c(-c3ccccc3)c2n1	-2.7	3.2	11.2	-2.6	-5.2	2.5	-4.5	i	16.9	0.2
O=C(Cc1n[nH]c(=O)c2ccccc12)OCC(=O)c1ccccc1	-2.5	5.0	11.6	-3.4	·	-2.6	·	i	·	·
C=CCNC(=O)c1ccc(C(=O)c2ccccc2)cc1	1.2	·	·	·	8.0	·	-3.6	·	8.8	5.7
CCCOc1cc(C)c(S(=O)(=O)n2ccc(C)n2)cc1C	3.0	·	·	·	4.0	·	0.0	·	11.5	-0.9
CC1=NOC(=O)/C1=C\c1ccccc1	-1.7	14.9	5.4	-0.4	20.2	-1.3	-0.4	i	1.5	0.8
CCOC(=O)C1C(c2ccc(C)o2)NC(=O)NC1(O)C(F)(F)F (stereo not drawn)	-7.2	·	·	·	0.8	·	-1.0	·	-18.2	0.9
CCC(C(=O)NC1CCCCC1)n1c(SCc2ccc(F)cc2)nc2ccncc21 (stereo not drawn)	8.4	0.1	8.7	-3.7	-3.3	-3.5	-4.2	i	-11.0	-0.5
CS(=O)(=O)N1CCC(C(=O)Nc2ccc(Br)cc2F)CC1	1.9	·	·	·	-0.7	·	-3.8	·	-0.8	?
COc1cc(C(=O)N/N=C/c2cccc(Oc3ccccc3)c2)ccc1O	-2.1	-51.9	-77.7	-12.2	59.0	2.5	84.9*	i	9.3	-1.1
C=CCN1C(=O)C(C)S/C1=N\S(=O)(=O)c1ccc(Cl)cc1 (stereo not drawn)	0.4	·	·	·	-8.4	·	16.3	·	6.2	-2.0
CCOc1ccccc1NC(=O)Cn1nnc(C(=O)NCCc2ccc(OCC)c(OCC)c2)c1N	9.1	14.3	18.4	1.2	31.9	-0.8	-2.1	i	7.7	-1.4
O=C(Nc1ccc2c(c1)OCO2)c1ccc(S(=O)(=O)NCC2CCCO2)cc1 (stereo not drawn)	0.4	·	·	·	-4.3	·	1.0	·	-7.3	-2.4
COc1cc(C(C)=O)ccc1OCC(=O)Nc1ccccc1N1CCCCC1	-5.6	-15.0	-39.0	7.6	-5.9	-14.4	-5.9	i	-2.7	·
Cn1c(/C=C/N2CCOCC2)c(C(=O)c2ccc(Br)cc2)c(=O)n(C)c1=O	-1.6	·	·	·	1.0	·	·	·	11.1	2.1
CCC(=O)c1ccc(SC(=O)N(C)C)cc1O	-5.8	3.7	-4.2	-1.8	1.6	0.0	-8.6	i	-2.9	4.0
Cc1ccc(C)n1-c1ccc(-c2nnco2)cc1	-7.5	·	·	·	-7.3	·	-1.7	·	-9.2	0.9
C=C(c1ccccc1O)n1ccnc1	9.5	9.9	11.7	-0.4	13.5	2.7	14.8	i	-4.1	3.4
CCOc1ccc(-n2cnnn2)cc1S(=O)(=O)NC1CC1	-7.4	·	·	·	-15.1	·	-3.2	·	·	6.2
COC(=O)CNC(=O)C(Cc1c[nH]c2ccccc12)NC(=O)Oc1ccccc1 (stereo not drawn)	-1.8	2.5	7.8	1.4	-1.2	7.6	-5.0	i	-9.2	-0.2

A portion of the library. The share of hits here may be higher or lower than overall.
